# RGS16-Gao = RGS16-Galphao interaction regulator (human). binding response (% of control), % at 10 µM. bead-based flow cytometry RGS16-Galphao binding, fluorescence; actives lie on both sides. 220,000 compounds, 0.38% hits;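 active = below 25% or above 175%, edge rows of some plates excepted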;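 also: Galphao activated by GDP with aluminum fluoride before binding; 100% = wells without compound and 0% = beads without RGS; some results beyond the cut were filed as inactive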
# Insulin prom inh = TRM-6 insulin promoter activity inhibition; TRM-6 cells (human fetal islet line), insulin promoter-eGFP reporter, imaging; reporter expression induced with tamoxifen; 130,000 compounds, 0.9% hits; inhibition, % at 2 µM;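 active = inhibition above the mean plus 3 SD, with well images judged a real hit on visual review, cut at about 60% in these data, passing the limit was not always enough; inconclusive = inhibition over the cutoff but images rejected on review; inactive = inhibition not above the cutoff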
# HSV augment = increases HSV replication in cells; HSV replication augmentation in cells, fold increase; maximum fold increase; 220,000 compounds, 0.005% hits; AID 1956;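 active = peak rise of 1.5-fold or more in the series; inconclusive = self-fluorescent or not available for retest; tested in PC3 cells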;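 also: first round at 10 µM; read as green reporter fluorescence; hits show the peak of a series up to 25 µM; 1 = signal of infected wells without compound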
# PKD1 inh = PKD1 (human) kinase inhibition; PKD1 kinase fluorescence polarization assay; inhibition, %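 (about 10 µM by stock and volumes)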; 200,000 compounds, 0.056% hits; AID 797;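 active = inhibition of 50% or more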;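 also: controls were vehicle for no effect and a reference inhibitor for full effect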
# Target sequence (Q15139 whole entry, looked up): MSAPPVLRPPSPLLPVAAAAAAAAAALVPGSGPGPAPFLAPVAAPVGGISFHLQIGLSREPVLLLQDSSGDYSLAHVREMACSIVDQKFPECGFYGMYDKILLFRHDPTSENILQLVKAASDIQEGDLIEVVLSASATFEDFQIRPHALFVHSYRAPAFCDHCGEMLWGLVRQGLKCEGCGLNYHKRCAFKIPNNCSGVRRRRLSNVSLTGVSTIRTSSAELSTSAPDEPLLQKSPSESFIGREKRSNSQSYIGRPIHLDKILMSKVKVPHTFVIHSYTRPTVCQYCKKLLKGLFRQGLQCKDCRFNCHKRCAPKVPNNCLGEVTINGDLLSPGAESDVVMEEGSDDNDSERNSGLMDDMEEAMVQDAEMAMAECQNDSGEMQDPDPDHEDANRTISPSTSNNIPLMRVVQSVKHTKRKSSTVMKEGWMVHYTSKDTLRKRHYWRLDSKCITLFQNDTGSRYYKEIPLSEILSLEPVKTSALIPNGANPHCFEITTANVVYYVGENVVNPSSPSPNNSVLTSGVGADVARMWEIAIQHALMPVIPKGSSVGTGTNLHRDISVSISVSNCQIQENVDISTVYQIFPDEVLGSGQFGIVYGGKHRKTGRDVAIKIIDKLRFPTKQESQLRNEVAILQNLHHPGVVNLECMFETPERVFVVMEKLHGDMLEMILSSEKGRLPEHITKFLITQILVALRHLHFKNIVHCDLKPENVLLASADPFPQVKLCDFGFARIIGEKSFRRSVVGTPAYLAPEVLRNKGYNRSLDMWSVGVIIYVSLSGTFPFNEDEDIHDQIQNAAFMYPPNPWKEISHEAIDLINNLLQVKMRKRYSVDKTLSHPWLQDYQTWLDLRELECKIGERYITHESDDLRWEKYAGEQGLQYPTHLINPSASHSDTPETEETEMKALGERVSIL
# GALR2 agonist = agonists of human galanin receptor 2 (GALR2); O43603; GALR2-expressing cells, agonist activation read-out; activation, %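 (tested at 5 µM)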; 140,000 compounds, 0.48% hits;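 active = above mean plus 3 SD of all compounds, about 5% in these data, not always enough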;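 also: 0% = vehicle buffer wells and 100% = reference agonist at full effect; tested in CHO reporter cells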
# Insulin prom inh cell count = further read-out of Insulin prom inh, marked with its call; normalized cell count, %; measured here: cell count, toxicity; reference of the scale not given here;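 cells exposed to compound for 48 h; stained nuclei by imaging scaled within each plate; lower means fewer cells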
# HSV augment primary fold = also measured in HSV augment; calls as there; fold increase; compound at 10 µM; measured here: primary screen fold increase 10 uM; tested in PC3 cells;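 GFP signal in the first replicate; 1 = infected wells without compound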
# Active calls of the source: *; i = inactive; ? = inconclusive; . = not tested or not shown.
canonical_smiles,HSV augment,RGS16-Gao,PKD1 inh,GALR2 agonist,HSV augment primary fold,Insulin prom inh cell count,Insulin prom inh
N#Cc1ccc(NCCc2ccccn2)c([N+](=O)[O-])c1,i,97,.,.,1.2,.,.
Cn1c(=O)cc(NCCc2ccccc2)[nH]c1=O,i,97,-5,-1.5,0.98,47,22
CC1=CC2=NC(=O)/C(=C/c3coc4ccccc4c3=O)C(=N)N2O1,?,115,.,.,.,.,.
CCC(NC(=O)NCc1cccnc1)(C(F)(F)F)C(F)(F)F,i,102,-6,0.1,0.9,54,60
CC(=O)c1c(C(C)=O)c(C)n(-c2nc(-c3ccccc3)c(C)s2)c1C,i,102,-9,-1.0,1,150,-3
O=C(NC1c2ccccc2-c2ccccc21)c1ccco1,.,99,-6,-1.7,.,82,-44
CCCCN(CCCC)CCCNC(=O)C12CN(Cc3ccccc3)CC1C(c1cccc([N+](=O)[O-])c1)=NO2 (stereo unspecified),i,101,4,0.3,0.76,109,0
COc1ccc(/C=N/NC(=O)c2cc(C)on2)c2ccccc12,i,100,-10,-1.8,0.83,140,0

# (next part)
canonical_smiles,HSV augment,RGS16-Gao,PKD1 inh,GALR2 agonist,HSV augment primary fold,Insulin prom inh cell count,Insulin prom inh
COC(=O)Cn1c2ccccc2c2nc(C)sc21,i,103,-3,-2.8,0.93,101,5
CCOC(=O)c1c(NC(=O)C2CC2)sc(C)c1CC,i,104,-10,0.9,0.99,139,-30
CCOC(=O)C1=C(C)NC2=C(C(=O)CC(c3cccs3)C2)C1c1cccs1 (stereo unspecified),i,95,-4,0.7,0.94,66,-419
COc1cc(OC)cc(C(=O)Oc2ccc(/C=N/Nc3nc4ccccc4s3)cc2OC)c1,i,100,-2,-0.5,0.91,87,33
O=c1[nH]nc(-c2cccs2)c2ccccc12,i,99,-5,.,0.88,.,.
Cc1cccc(OCC(=O)NCC(=O)N/N=C/c2ccc([N+](=O)[O-])cc2)c1,i,98,-5,.,1,106,-47
Cc1ccc(NC(=O)NC2CCN(S(=O)(=O)c3ccc(F)cc3)CC2)cc1,i,112,3,-2.5,0.89,82,56
COP(C)(=O)c1c(C)nn(-c2ccccc2)c1C (stereo unspecified),i,107,-10,-4.9,0.99,97,-84

# Rewritten with values under each structure: entries from further up.
# Results follow in this order: HSV augment, RGS16-Gao, PKD1 inh, GALR2 agonist, HSV augment primary fold, Insulin prom inh cell count, Insulin prom inh
CCOC(=O)C1=C(C)NC2=C(C(=O)CC(c3cccs3)C2)C1c1cccs1 (stereo unspecified)
  i, 95, -4, 0.7, 0.94, 66, -419
COc1cc(OC)cc(C(=O)Oc2ccc(/C=N/Nc3nc4ccccc4s3)cc2OC)c1
  i, 100, -2, -0.5, 0.91, 87, 33

# The results go on.
canonical_smiles,HSV augment,RGS16-Gao,PKD1 inh,GALR2 agonist,HSV augment primary fold,Insulin prom inh cell count,Insulin prom inh
COc1ccc(-c2[nH]ncc2/C=N/NC(=O)c2ccc(Br)cc2)c(OC)c1,i,100,2,-0.5,0.95,56,24
CCc1ccc(NC(=O)C2CC(=O)N(C(C)C)C2)cc1 (stereo unspecified),i,94,-11,-2.4,0.78,43,14
C=C(Br)Cn1c(CCCC)nc2ccccc21,i,257,3,-0.6,0.9,73*,86*
Cc1ccc(N=C2N=C(N)c3ccccc32)cc1C,i,.,-4,-1.1,0.68,82,-47
CCSc1nc2c(c(=O)[nH]1)C(c1ccccn1)C1=C(CC(C)(C)CC1=O)N2 (stereo unspecified),i,100,-10,-3.8,0.91,.,.
C/C(=N\Nc1ccc([N+](=O)[O-])cc1[N+](=O)[O-])C(C)C(C)C (stereo unspecified),i,94,1,.,1,.,.
COc1ccc(C(O)c2nc3ccccc3n2C(C)C)cc1 (stereo unspecified),i,105,.,.,0.95,.,.
CN1CCN(CC(=O)Nc2cccc([N+](=O)[O-])c2)CC1,i,92,-2,.,1.1,.,.

# Sorted by heavy-atom count (largest number first): part of the list above
canonical_smiles,HSV augment,RGS16-Gao,PKD1 inh,GALR2 agonist,HSV augment primary fold,Insulin prom inh cell count,Insulin prom inh
COc1cc(OC)cc(C(=O)Oc2ccc(/C=N/Nc3nc4ccccc4s3)cc2OC)c1,i,100,-2,-0.5,0.91,87,33
CC1=CC2=NC(=O)/C(=C/c3coc4ccccc4c3=O)C(=N)N2O1,?,115,.,.,.,.,.
COc1ccc(C(O)c2nc3ccccc3n2C(C)C)cc1 (stereo unspecified),i,105,.,.,0.95,.,.
CN1CCN(CC(=O)Nc2cccc([N+](=O)[O-])c2)CC1,i,92,-2,.,1.1,.,.
CCOC(=O)c1c(NC(=O)C2CC2)sc(C)c1CC,i,104,-10,0.9,0.99,139,-30
COP(C)(=O)c1c(C)nn(-c2ccccc2)c1C (stereo unspecified),i,107,-10,-4.9,0.99,97,-84

# Additional records follow.
canonical_smiles,HSV augment,RGS16-Gao,PKD1 inh,GALR2 agonist,HSV augment primary fold,Insulin prom inh cell count,Insulin prom inh
CCOc1cc(NC(=O)c2cnccn2)c(OCC)cc1NC(=O)c1cccc(F)c1,i,93,-6,.,0.98,46,-19
CNS(=O)(=O)c1ccc(NC(=S)Nc2ccc3c(c2)OCO3)cc1,i,93,0,.,0.68,.,.
Cc1ccc(N2CC(O)=C(c3nc4ccccc4c(=O)[nH]3)C2=N)cc1C,i,102,-3,.,0.94,82,14
CCn1c(=O)n(CC)c2cc(S(=O)(=O)Nc3cc(C)cc(C)c3C#N)ccc21,i,102,0,3.0,1.1,94,-54
COc1ccc(C2=NN(CCC(=O)NCc3cccs3)C(=O)CC2)cc1,i,109,-3,.,1.1,101,-27
COc1ccc(-c2nnnn2CCc2ccccc2)cc1,i,101,-8,-1.5,0.86,108,-75
OC(COc1ccc2cc(Br)ccc2c1)CN1CCOCC1 (stereo unspecified),i,.,-6,-1.0,0.74,100,-25
CCNc1nc(NCC)nc(N(n2cnnc2)S(=O)(=O)c2ccc(C)cc2)n1,i,89,5,-0.2,0.99,59*,80*

# (more compounds)
canonical_smiles,HSV augment,RGS16-Gao,PKD1 inh,GALR2 agonist,HSV augment primary fold,Insulin prom inh cell count,Insulin prom inh
O=C(Nc1ccc(F)cc1)c1cc(Cl)sc1Cl,.,105,0,.,.,120,38
O=C(O)CC(NCc1ccco1)C(=O)OCCCl (stereo unspecified),i,104,6,.,1.1,.,.
CCC(=O)N1CCc2cc(S(=O)(=O)N(CC)c3cccc(C)c3)ccc21,.,105,-2,-1.6,.,75,39
CC1CCCCN1CCNC(=O)Cn1nc(-c2ccccc2)ccc1=O (stereo unspecified),i,101,-8,-0.2,0.86,.,.
CCOC(=O)C1(CCOC)CCN(C(=O)c2sccc2C)CC1,i,56,3,.,1,.,.
O=C1CC(N2CCC(c3nc4ccccc4o3)CC2)C(=O)N1c1ccc(F)cc1 (stereo unspecified),i,103,4,.,0.93,.,.
Cc1nonc1NC(=O)OCCN1CCOC1=O,i,100,-1,-0.3,1.1,180,27
CC1=C(C(=O)OCCNC(=O)c2ccccc2O)C(c2ccccc2[N+](=O)[O-])C(C(=O)OCC2CCCO2)=C(C)N1 (stereo unspecified),i,99,2,0.2,0.89,81,-21

# Going on with the list.
canonical_smiles,HSV augment,RGS16-Gao,PKD1 inh,GALR2 agonist,HSV augment primary fold,Insulin prom inh cell count,Insulin prom inh
O=C(NC(=S)NNC(=O)c1cccs1)c1ccc(Br)o1,i,103,-2,-2.7,0.85,127,-14
COc1ccc(NC(=O)CN2CCCCC2)cc1,i,119,5,-2.0,0.85,66,-207
COc1ccc(Cn2cc(C(=O)O)c(=O)c3ccccc32)cc1,i,103,7,.,0.96,114,47
O=C(Nc1ccccc1)N(Cc1ccc2c(c1)OCO2)Cc1nc2ccccc2c(=O)[nH]1,i,101,7,-0.9,0.9,122,-7
Cc1ccc(-c2nc3s/c(=C\c4ccco4)c(=O)n3n2)cc1,i,109,-1,-0.6,1.1,150,22
Cc1ccc2c(c1)CCCN2C(=O)c1cc2ccccc2oc1=O,i,94,-4,-0.7,0.99,60,27
COc1ccc(/C=C/C(=O)C23CC4CC(CC(C4)C2)C3)cc1CN1CCOCC1,i,102,-2,.,0.83,.,.
COc1ccc(Br)cc1C(=O)Nc1cccc(NC(=O)c2ccco2)c1,i,101,-4,-1.3,0.93,.,.

# Further records.
canonical_smiles,HSV augment,RGS16-Gao,PKD1 inh,GALR2 agonist,HSV augment primary fold,Insulin prom inh cell count,Insulin prom inh
CC(=O)c1cccc(NC(=O)CN(c2ccc(F)cc2)S(C)(=O)=O)c1,i,104,-13,0.2,1,128,-20
COc1cccc(=O)c2c(C)n(-c3cc(C)cc(C)c3)c(C)c12,i,97,-4,-1.5,1.1,73,-7
Cc1ccc(Nc2nc(N)nc(CSC(=S)N3CCOCC3)n2)c(C)c1,i,93,-4,-0.1,1,75,3
CCOc1ccc(/C(C)=N/N2C(=O)C(CC(=O)Nc3ccc(OC)cc3[N+](=O)[O-])SC2=Nc2cccc(C)c2C)cc1 (stereo unspecified),i,105,-7,-2.1,0.8,125,11
Cn1nc([N+](=O)[O-])nc1Sc1ccc(C(C)(C)C)cc1,.,103,-8,-2.4,.,.,.
CCNc1nc(NCC)nc(Oc2ccc(OCc3ccccc3)nn2)n1,i,69,0,.,0.89,.,.
CC(C)CCn1c(O)c(N=NC(=O)Cn2ccc(C(F)(F)F)n2)c2ccccc21,i,109,-4,-1.9,0.99,102,55
CCCn1c(N2CCN(CC(=O)NCc3cccs3)CC2)nc2ccccc21,i,102,-4,-0.7,0.8,171,-11

# New compounds follow
canonical_smiles,HSV augment,RGS16-Gao,PKD1 inh,GALR2 agonist,HSV augment primary fold,Insulin prom inh cell count,Insulin prom inh
Cc1ccccc1-c1nc(CN(C)C(C)c2ccon2)c(C)o1 (stereo unspecified),i,112,-3,.,1,.,.
C[C@@H]1CC=C[C@H]2[C@H]1C(=O)N(Cc1ccccc1)[C@H]2c1ccc(F)c(-c2ccc(N(C)C)cc2)c1,i,104,.,.,1.1,.,.
COc1ccc(CCc2nnc(CCC(=O)N(C)Cc3ccncc3C)o2)cc1,i,105,-8,.,0.99,171,22
CN1CC2(C)OC(=O)C(Cl)=C2CC1c1ccccc1 (stereo unspecified),i,113,-6,-0.3,0.98,116,-60
O/N=C1\CCCCc2ccccc21,i,107,1,-0.7,0.79,.,.
CNc1nc(N)c(C(=O)C(C)(C)C)s1,i,77,0,0.2,0.91,58,0
CCn1ccc(C(=O)Nc2ccc(N(C)C(C)=O)cc2)n1,i,105,-4,-0.8,0.94,.,.
COc1ccc(N(CC(=O)NCc2ccccc2)S(C)(=O)=O)cc1,i,106,-1,-0.5,0.92,.,.

# (next part)
canonical_smiles,HSV augment,RGS16-Gao,PKD1 inh,GALR2 agonist,HSV augment primary fold,Insulin prom inh cell count,Insulin prom inh
Cc1ccc(-c2noc(CN3C(C)CCCC3C)n2)cc1 (stereo unspecified),i,95,-7,-1.2,0.96,.,.
N#Cc1sc2nc(N3CCCCC3)c3c(c2c1N)CCCC3,i,101,-3,0.2,0.99,105,-130
CCCCCNC(=O)C1CC(=O)OC12CCCCC2 (stereo unspecified),i,97,5,.,1,.,.
CCOc1ccc(CSC(=N)N)cc1,i,73,-17,-1.4,0.99,60,-33
CCC(=O)Nc1nnc(-c2cccs2)s1,i,103,-5,.,1.1,.,.
CCc1cccc(Nc2c([N+](=O)[O-])cc(C(=O)N3CC(=O)Nc4ccccc43)cc2[N+](=O)[O-])c1,.,102,-9,0.7,.,.,.
Cn1c(SCC(=O)NC2CCCC2)nnc1-c1ccc(S(=O)(=O)N2CCOCC2)cc1,i,103,8,-3.4,0.76,114,10
CCCN=Cc1c(CCC)[nH]n(-c2nc3ccccc3s2)c1=O,i,105,-1,-0.3,1.1,94,-29

# Further results:
canonical_smiles,HSV augment,RGS16-Gao,PKD1 inh,GALR2 agonist,HSV augment primary fold,Insulin prom inh cell count,Insulin prom inh
COc1ccc([N+](=O)[O-])cc1NC(=O)COC(=O)c1ccccc1C(=O)c1ccccc1,i,100,-9,-1.8,0.78,136,-13
Cc1ccc(N=C2NC(=O)/C(=C/c3cccnc3)S2)cc1C,i,97,.,.,0.85,.,.
O=C(CN(Cc1cccs1)C(=O)CNS(=O)(=O)c1ccccc1)NCc1ccco1,i,100,1,-0.6,0.95,234,-24
O=C(NNC(=O)c1cc(-c2ccccc2)n(-c2ccccc2)n1)c1cccc([N+](=O)[O-])c1,i,106,2,-1.6,1.1,.,.
CC1=NN(C(=O)c2ccco2)C(O)(c2ccccc2)C1 (stereo unspecified),i,100,.,.,0.83,.,.
COCC(=O)Nc1nc(-c2ccccc2)c(C)s1,i,101,-8,0.8,1.1,.,.
CCOC(=O)c1c(C)oc(C)c(C(=O)OCC)c1=O,i,108,.,.,1.1,.,.
Cn1c(NCCN2CCCCC2)cc(=O)n(C)c1=O,i,106,-2,-2.2,0.95,.,.
COc1ccc(C(NC(=O)C(C)C)c2ccc3cccnc3c2O)cc1 (stereo unspecified),i,90,.,.,0.45,.,.

# Compound activity (PubChem BioAssay)
